Screens as filed in PubChem BioAssay.
Vaccinia stage: blocks a specific stage of Vaccinia orthopoxvirus infection, primary screen, cell-based, single point; Vaccinia-infected cells, mCherry/Venus stage reporter fluorescence; stronger effect = lower value; some inactives read as strong as hits; activity change (mCherry), % (test concentration not listed); 89,000 compounds, 0.01% hits;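 active = mCherry past -33% and 40 or more points under the early reporter, replicates agreeing; inconclusive = past -33% without that gap or agreement; tested in A549 cells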;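 note: scaled between vehicle wells and reference inhibitor wells; 23 nL library stock went into each well; one replicate is shown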
Vaccinia stage Venus: also measured in Vaccinia stage; calls as there; activity change (Venus), %; measured here: Venus reporter, other viral stage;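 negative = less Venus signal; first of two replicates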
* hit, by the source's call; ? = inconclusive; . = no result given.

Values in the order: Vaccinia stage	Vaccinia stage Venus
1	COCC#Cc1cnc2c(c1)C(=O)N([C@H](C)CO)C[C@@H](C)[C@@H](CN(C)C(=O)Nc1cc(F)ccc1F)O2
→ 18	13
2	CO[C@@H]1CN(C)C(=O)c2cc(NC(=O)C3CC3)ccc2OC[C@@H](C)NC[C@H]1C
→ 2	3
3	COc1ccc2c3c(n(C)c2c1)[C@H](CO)N(C(=O)C1CCOCC1)CC31CCN(C(=O)Nc2cccc(F)c2)CC1
→ -4	-5
4	CC=Cc1ccc2n(c1=O)C[C@H]1[C@H](CO)[C@@H](C(=O)Nc3ccccc3)[C@@H]2N1C(=O)CC1CC1 (mixture of isomers)
→ 13	16
5	COCC(=O)N(C)C[C@@H]1Oc2ncc(C#CC(C)(C)O)cc2C(=O)N([C@@H](C)CO)C[C@@H]1C
→ -4	-5
6	COc1ccc(S(=O)(=O)N[C@H]2CC[C@@H](CCn3cc(-c4ccccc4F)nn3)O[C@H]2CO)cc1
→ -21	-24
7	CN(C)c1ccc2c(c1)[C@H]1C[C@H](CC(=O)NCc3ccc4c(c3)OCO4)O[C@@H](CO)[C@H]1O2
→ 3	16
8	COCC(=O)N(C)C[C@H]1Oc2ncc(C#CCC3CCCC3)cc2C(=O)N([C@H](C)CO)C[C@H]1C
→ 12	11
9	Cc1noc(C)c1NC(=O)N(C)C[C@@H]1Oc2ccc(NS(=O)(=O)c3ccc(Cl)cc3)cc2C(=O)N([C@@H](C)CO)C[C@@H]1C
→ -1	2
10	CCC(=O)N1CC2(C1)[C@H](c1ccccc1)[C@@H](CO)N2CC1CCCC1
→ 8	14
11	CO[C@H]1CN(C)C(=O)c2ccc(NS(=O)(=O)c3ccccc3)cc2OC[C@@H](C)N(C(=O)NC(C)C)C[C@@H]1C
→ 8	3
12	C=CC[C@]1(C(=O)N(C)C)COC(c2ccc(OCCCO)cc2)=N1
→ 7	10
13	Cc1noc(C)c1NC(=O)Nc1cccc2c1O[C@@H](CN(C)S(C)(=O)=O)[C@H](C)CN([C@H](C)CO)C2=O
→ 34	19
14	COCc1cn(CC[C@@H]2CC[C@H](NC(=O)CCN3CCCCC3)[C@@H](CO)O2)nn1
→ 0	10
15	CC(C)NC(=O)Nc1cccc2c1O[C@@H](CN(C)Cc1ccc(C(=O)O)cc1)[C@H](C)CN([C@H](C)CO)C2=O
→ 10	6
16	O=C(C[C@H]1CC[C@@H]2[C@H](COC[C@H](O)CN2Cc2ccccc2F)O1)N[C@H]1CCN(Cc2ccccc2)C1
→ -24	-15
17	CC=Cc1ccc2n(c1=O)C[C@H]1[C@H](CO)[C@@H](C(=O)NC3CCC3)N(CCC(F)(F)F)[C@@H]21 (mixture of isomers)
→ 11	9
18	O=C([C@H]1[C@H](CO)[C@H]2Cn3c(ccc(C4=CCCCC4)c3=O)[C@@H]1N2Cc1nccs1)N1CCOCC1
→ 11	9
19	CCCNC(=O)Nc1ccc2c(c1)OC[C@H](C)NC[C@@H](C)[C@H](OC)CN(C)C2=O
→ 10	6
20	O=C(c1ccncc1)N1CC2(C1)[C@@H](c1ccccc1)[C@@H](CO)N2Cc1ccccn1
→ 1	6
21	COCC#Cc1ccc([C@H]2[C@@H](CO)N3C(=O)CN(C(=O)C4CCC4)C[C@@H]23)cc1
→ 1	5
22	CCC(=O)N1[C@H](CO)[C@H](c2ccc(-c3ccccc3OC)cc2)[C@@H]1CNC(C)=O
→ 2	7
23	CCCNC(=O)C[C@@H]1CC[C@H]2[C@@H](COC[C@@H](O)CN2CC2CCCCC2)O1
→ -5	-4
24	O=C(NC1CCC1)[C@@H]1[C@@H](CO)[C@@H]2Cn3c(ccc(C4=CCCC4)c3=O)[C@H]1N2C(=O)c1ccccc1
→ 12	13
25	C/C=C/c1ccc(C2[C@@H]3CN(Cc4cocn4)C[C@H]2N3)cc1 (some centres undefined)
→ 6	0
26	COc1ccc(NC(=O)Nc2ccc3c(c2)C(=O)N([C@H](C)CO)C[C@H](C)[C@H](CN(C)C(=O)Nc2ccc(F)cc2)OCCCC[C@H](C)O3)cc1
→ 0	10
27	[N-]=[N+]=Nc1ccccc1C[C@@]1(C(=O)N2CCCCC2)N=C(c2ccc(OCCCO)cc2)O[C@@H]1c1ccccc1
→ -8	-9
28	COC(=O)CCCCCCC(=O)Nc1ccc(C2OC(CSc3nc(-c4ccccc4)c(-c4ccccc4)o3)CC(c3ccc([N+](=O)[O-])cc3)O2)cc1 (centres undefined)
→ 1	0
29	CN(C)C(=O)c1ccc(-c2ccc([C@@H]3[C@@H](CO)N4C(=O)CN(C(=O)C5CC5)C[C@@H]34)cc2)cc1
→ 10	7
30	COc1ccc(CN(C)C[C@@H]2Oc3ccc(NC(=O)Nc4cccc5ccccc45)cc3C(=O)N([C@@H](C)CO)C[C@@H]2C)cc1
→ ?	.

Compound profiles, as listed above:
Entry for CN(C)C(=O)c1ccc(-c2ccc([C@@H]3[C@@H](CO)N4C(=O)CN(C(=O)C5CC5)C[C@@H]34)cc2)cc1 = Vaccinia stage: 10; Vaccinia stage Venus: 7
Entry for CC=Cc1ccc2n(c1=O)C[C@H]1[C@H](CO)[C@@H](C(=O)NC3CCC3)N(CCC(F)(F)F)[C@@H]21 (mixture of isomers) = Vaccinia stage: 11; Vaccinia stage Venus: 9

The list continues.
Values in the order: Vaccinia stage	Vaccinia stage Venus
31	COc1ccc(CN(C)C[C@H]2OCCCC[C@@H](C)Oc3ccc(NC(=O)c4ccncc4)cc3C(=O)N([C@H](C)CO)C[C@@H]2C)cc1
→ 5	7
32	C[C@H]1CN([C@@H](C)CO)C(=O)c2cccc(NC(=O)C3CCOCC3)c2O[C@@H]1CN(C)C
→ -7	-17
33	CN(C)C(=O)c1cccc(-c2ccc3c(c2)[C@H]2[C@H](CCN2C(=O)Cc2ccccc2)[C@H](CO)N3)c1
→ -4	16
34	Cc1noc(C)c1NC(=O)NCC[C@H]1CC[C@H](NC(=O)c2ccc(F)cc2)[C@H](CO)O1
→ 6	0
35	CCC(=O)Nc1ccc2c(c1)C(=O)N(C)C[C@H](OC)[C@@H](C)CN(C(=O)C1CCC1)[C@@H](C)CO2
→ 5	14
36	COc1ccc(S(=O)(=O)Nc2cccc3c2O[C@H](CN(C)C(=O)NC(C)C)[C@H](C)CN([C@@H](C)CO)C3=O)cc1
→ 20	16
37	C[C@@H]1CN([C@H](C)CO)C(=O)c2cc(NS(=O)(=O)c3cccs3)ccc2O[C@@H](C)CCCCO[C@H]1CN(C)S(=O)(=O)c1ccccc1
→ -30	-19
38	CC(C)NC(=O)N(C)C[C@@H]1OCCCC[C@@H](C)Oc2ccc(NC(=O)c3ccccc3)cc2C(=O)N([C@H](C)CO)C[C@@H]1C
→ 25	7
39	C[C@@H]1CCCCO[C@H](CN(C)C(=O)Nc2ccc(F)cc2)[C@@H](C)CN([C@@H](C)CO)C(=O)c2cc(NS(=O)(=O)c3cccs3)ccc2O1
→ 1	1
40	CO[C@@H]1CN(C)C(=O)c2cc(NC(=O)NC3CCCCC3)ccc2OC[C@@H](C)N(C(C)=O)C[C@@H]1C
→ 2	0
41	Cc1cccc(-c2ccccc2[C@H]2[C@@H](C#N)N(c3ncc(-c4ccccc4)s3)[C@@H]2CO)c1
→ -15	-10
42	C[C@@H]1CCCCO[C@@H](CN(C)C(=O)c2ccccc2)[C@@H](C)CN([C@@H](C)CO)C(=O)c2cc(NC(=O)Nc3ccc(F)cc3)ccc2O1
→ 31	13
43	COc1ccc(NC(=O)N(C)C[C@H]2OCCCC[C@@H](C)Oc3ccc(NC(=O)Nc4ccc(C(F)(F)F)cc4)cc3C(=O)N([C@H](C)CO)C[C@H]2C)cc1
→ 2	9
44	COc1cccc(C(=O)Nc2ccc3c(c2)C(=O)N(C)C[C@H](OC)[C@H](C)CN(C)[C@H](C)CO3)c1
→ -4	-3
45	C[C@@H]1CN([C@@H](C)CO)C(=O)c2cc(-c3cccc(C#N)c3)cnc2O[C@@H]1CN(C)C(=O)c1cnccn1
→ 8	3
46	C[C@@H]1CN([C@H](C)CO)C(=O)c2cccc(NS(=O)(=O)c3cn(C)cn3)c2O[C@H]1CN(C)C(=O)Nc1ccc2c(c1)OCO2
→ 0	-6
47	COc1ccc2c3c(n(C)c2c1)[C@@H](CO)N(C(=O)Cc1ccccc1)CC31CN(C(C)=O)C1
→ 25	18
48	CC(=O)N1CC[C@@H]2[C@@H](CO)Nc3ccc(C#Cc4ccccc4F)cc3[C@@H]21
→ 16	10
49	CO[C@@H]1CN(C)C(=O)c2ccc(NC(=O)C3CCCCC3)cc2OC[C@@H](C)NC[C@@H]1C
→ 1	1
50	C[C@@H]1CN([C@H](C)CO)C(=O)c2cc(N(C)C)ccc2O[C@@H](C)CCCCO[C@@H]1CN(C)C(=O)CCCN(C)C
→ 6	0
51	O=C(C[C@H]1C=C[C@H](NC(=O)Nc2ccccc2F)[C@@H](CO)O1)NCc1ccccc1
→ 0	1
52	O=C(Nc1ccc2c(c1)[C@@H]1C[C@@H](CC(=O)N3CCOCC3)O[C@H](CO)[C@@H]1O2)NC1CCCCC1
→ 16	10
53	CCCNC(=O)[C@H]1[C@H](CO)[C@H]2Cn3c(ccc(C4=CCCCC4)c3=O)[C@H]2N1C(=O)c1cnccn1
→ 13	3
54	C[C@H](CO)N1C[C@H](C)[C@@H](CN(C)S(=O)(=O)c2cn(C)cn2)Oc2ccc(NC(=O)Cn3cnnn3)cc2CC1=O
→ 5	2
55	CC(C)NC(=O)NCC[C@@H]1CC[C@@H](NC(=O)c2ccc(F)cc2)[C@H](CO)O1
→ 0	0
56	C[C@H](CO)N1C[C@H](C)[C@H](CN(C)C(=O)Nc2ccc(C(F)(F)F)cc2)Oc2ccc(NS(=O)(=O)c3ccccc3)cc2CC1=O
→ -1	-1
57	Cc1ccc(S(=O)(=O)Nc2ccc3c(c2)C(=O)N([C@@H](C)CO)C[C@@H](C)[C@@H](CN(C)C(=O)Nc2ccccc2)OCCCC[C@H](C)O3)cc1
→ 6	4
58	Cc1ccc(S(=O)(=O)N(C)C[C@H]2Oc3ncc(Br)cc3C(=O)N([C@@H](C)CO)C[C@@H]2C)cc1
→ -19	-13
59	CNC[C@H]1Oc2c(NC(=O)c3ccncc3)cccc2C(=O)N([C@H](C)CO)C[C@@H]1C
→ 2	-3
60	CCCNC(=O)N1[C@H](C#N)[C@@H](c2ccccc2-c2ccccc2F)[C@H]1CO
→ -6	1

Quoted from the listing.
COc1ccc2c3c(n(C)c2c1)[C@@H](CO)N(C(=O)Cc1ccccc1)CC31CN(C(C)=O)C1 @ Vaccinia stage Venus = 18
O=C(C[C@H]1C=C[C@H](NC(=O)Nc2ccccc2F)[C@@H](CO)O1)NCc1ccccc1 @ Vaccinia stage Venus = 1

Next part.
Values in the order: Vaccinia stage	Vaccinia stage Venus
61	CCCNC(=O)Nc1ccc2c(c1)OC[C@@H](C)N(CCC)C[C@H](C)[C@@H](OC)CN(C)C2=O
→ 0	5
62	CO[C@H](CN(C)C(=O)c1ccccc1F)[C@@H](C)CN([C@@H](C)CO)S(=O)(=O)c1ccc(C)cc1
→ -3	4
63	COc1ccccc1C(=O)N1C[C@H]2[C@@H](c3ccccc31)[C@@H](CO)N2C(=O)C1CCCC1
→ -13	-4
64	C[C@@H]1CN([C@@H](C)CO)C(=O)c2cc(NS(=O)(=O)c3ccc(Cl)cc3)ccc2O[C@@H](C)CCCCO[C@@H]1CN(C)S(=O)(=O)c1ccccc1
→ -22	-9
65	CC(C)CC#Cc1ccc([C@@H]2[C@@H](CO)N3C(=O)CN(C(=O)c4cnccn4)C[C@H]23)cc1
→ -11	-14
66	Cc1ccccc1S(=O)(=O)N1[C@H](C#N)[C@H](c2ccc(-c3ccccc3)cc2)[C@@H]1CO
→ -3	-2
67	CC(C)C[C@@H]1COCc2cn(nn2)CC[C@@H](Cc2ccccc2)C(=O)N1
→ 13	8
68	C/C=C/c1ccccc1[C@@H]1[C@@H](C#N)N(c2nc(CC)cs2)[C@H]1CO
→ -12	-4
69	CCC(=O)N[C@@H]1CC[C@@H](CCNC(=O)Nc2ccc(F)cc2)O[C@@H]1CO
→ 10	11
70	O=C(C[C@H]1CC[C@H]2NC[C@H](O)COC[C@@H]2O1)N1CCc2ccccc2C1
→ 1	8
71	Cc1ccc(S(=O)(=O)N(C)C[C@H]2OCCCC[C@@H](C)Oc3ccc(NC(=O)NC(C)C)cc3C(=O)N([C@@H](C)CO)C[C@@H]2C)cc1
→ -15	-20
72	CCC(=O)N1CCCCN2[C@H](CO)[C@H](c3ccc(C#Cc4ccccc4)cc3)[C@H]2C1
→ ?	.
73	C[C@@H]1CCCCO[C@@H](CN(C)C(=O)Cc2ccccc2)[C@@H](C)CN([C@@H](C)CO)C(=O)c2cc(NS(=O)(=O)c3ccccc3)ccc2O1
→ 8	-8

Filtered by structure: the entries above with a thiophene ring, fused or not.
Values in the order: Vaccinia stage	Vaccinia stage Venus
37	C[C@@H]1CN([C@H](C)CO)C(=O)c2cc(NS(=O)(=O)c3cccs3)ccc2O[C@@H](C)CCCCO[C@H]1CN(C)S(=O)(=O)c1ccccc1
→ -30	-19
39	C[C@@H]1CCCCO[C@H](CN(C)C(=O)Nc2ccc(F)cc2)[C@@H](C)CN([C@@H](C)CO)C(=O)c2cc(NS(=O)(=O)c3cccs3)ccc2O1
→ 1	1

This is a subset; rates above refer to the full screens.
